Screens as filed in PubChem BioAssay.
RE007 growth inh – less growth of the S. pombe RE007 Vpr strain; S. pombe RE007 Vpr strain, BacTiter-Glo ATP luminescence, 24 h; control for the full effect not named in the record; Potency, µM (doses to about 92.2 µM), for inactives: at the highest dose activity change, negative = less growth; actives 0.21% (n = 360,000); AID 651644; active = well fitted falling curve with a large enough effect; inconclusive = small, poorly fitted or top-dose-only effect; inactive = no such curve, though single readings can be large or run the other way;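 also: % is scaled to controls: 0 for no effect and ±100 for the full control effect; nearly all actives have a fitted effect of over 50% in size; the assay follows cell death caused by Vpr and the record does not say whether a fall means rescue or toxicity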
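Fission yeast RE007 carrying one integrated HIV-1 vpr copy, seeded at OD 0.01 in PMG+AL medium with 23 nL pinned compound. Grown 24 h at 30 degrees; viability read by BacTiter-Glo luminescence after 5 min.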
Cruzain noTriton – blocks cruzain activity in detergent-free assay | P25779 | purified cruzain, Z-FR-AMC fluorescence, no detergent | Potency, µM, inactives show max response, negative = inhibition, hits mostly inhibitors | actives 2.3% (n = 200,000) | AID 1476;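 also: plate controls were enzyme without inhibitor for no effect and buffer without enzyme for full effect; nearly all actives have a fitted effect of over 40% in size; top concentration of the series not given in the record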
Target sequence (P25779 123-467 limits assumed): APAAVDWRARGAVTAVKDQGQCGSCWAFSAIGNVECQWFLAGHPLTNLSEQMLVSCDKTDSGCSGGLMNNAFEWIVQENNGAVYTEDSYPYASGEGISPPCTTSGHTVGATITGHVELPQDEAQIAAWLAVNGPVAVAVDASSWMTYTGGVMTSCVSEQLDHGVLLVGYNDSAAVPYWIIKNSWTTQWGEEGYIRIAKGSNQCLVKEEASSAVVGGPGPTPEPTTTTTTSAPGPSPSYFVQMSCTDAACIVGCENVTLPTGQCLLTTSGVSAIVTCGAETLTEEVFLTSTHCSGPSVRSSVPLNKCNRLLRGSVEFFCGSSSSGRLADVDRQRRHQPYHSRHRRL
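Detergent-free condition (0.00005% Triton X-100) in acetate buffer pH 5.5 with DTT. 1.5 nM enzyme and compound were pre-mixed 15 min, then 2 uM Z-FR-AMC substrate added; reaction progress from fluorescence change between first and third reads (60 s).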
Cruzain Triton – inhibitors of Trypanosoma cruzi cruzain with detergent | actives 0.43% (n = 200,000) | AID 1478 | Potency, µM, inactives show max response, negative = inhibition, actives largely listed as inhibitors | P25779 | purified cruzain, Z-FR-AMC fluorescence, 0.01% Triton;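 also: plate controls were neutral wells for no effect and buffer without enzyme for full effect; nearly all actives have a fitted effect of over 40% in size; top concentration of the series not given in the record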
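Read-out: AMC fluorescence (360 nm excitation, 450 nm emission), four reads over 2 min, first-to-third difference used. Conditions: cruzain 1.5 nM, Z-FR-AMC 2 uM, pH 5.5 acetate, 5 mM DTT, 0.01% Triton X-100.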
SARS PLP yeast – SARS-CoV PLP inhibition in yeast. Potency, µM (highest dose often 32.9 µM), for inactives: top-dose activity, positive = growth rescue. actives 0.19% (n = 330,000). S. cerevisiae expressing SARS-CoV PLpro, growth rescue; control for the full effect not named in the record; active means well fitted rising curve with a large enough effect; inconclusive means small, poorly fitted or top-dose-only effect; inactive means no such curve, though single readings can be large or run the other way; also: 0% is about no effect; nearly all actives have a fitted effect of over 55% in size; growth read by luminescence after 48 h
StopGo reporter – FMDV 2A StopGo reporter, luciferase signal. human cells with a luciferase reporter of 2A StopGo recoding; control for the full effect not named in the record. Potency, µM (top dose mostly 57.9 µM), inactives show at the top dose signal change, negative = less light. actives 1.2% (n = 410,000); active = well fitted falling curve with a large enough effect; inconclusive = small, poorly fitted or top-dose-only effect; inactive = no such curve, though single readings can be large or run the other way; tested in HEK293T cells; also: % is scaled to controls: 0 for no effect and ±100 for the full control effect; nearly all actives have a fitted effect of over 45% in size; luciferase light after 4 h
MARV entry inh – Marburg virus entry inhibition; Marburg virus pseudotyped entry inhibition, cell reporter; control for the full effect not named in the record; about a third of the inactives were read at about 46 µM; Potency, µM (highest dose often 37.8 µM), for the others: at the highest dose activity change, negative = inhibition, hits mostly inhibitors; actives 1.8% (n = 300,000); AID 540276; active = well fitted inhibition curve with a large enough effect; inconclusive = small, poorly fitted or top-dose-only effect, or effect the other way; inactive = flat fitted curve, though single readings scatter; tested in HEK293 cells; about a fifth of its hits are not listed in these tables; also: % is scaled to controls: 0 for no effect and ±100 for the full control effect; luciferase read-out
NS1 inh – blocks influenza NS1 protein function; S. cerevisiae slowed by influenza A NS1, growth recovery by OD600; Potency, µM (top dose mostly 46.1 µM), without a hit: at the highest dose activity, positive = more growth; actives 0.4% (n = 270,000); AID 2326; active means well fitted rising curve with a large enough effect; inconclusive means small, poorly fitted or top-dose-only effect; inactive means no such curve, though single readings can be large or run the other way; also: nearly all actives have a fitted effect of over 50% in size
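OD600 was taken as the measure of yeast growth restored by compound in an NS1-expressing S. cerevisiae strain. Cells had been washed out of glucose medium and diluted 1:100 into galactose -URA medium, pH 6.0.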
Lassa entry inh – Lassa virus entry inhibition; Lassa virus pseudotype entry inhibition, cell reporter; control for the full effect not named in the record; Potency, µM (doses to about 37.9 µM), inactives show at the highest dose activity change, negative = inhibition, usual class: inhibitors; actives 1.2% (n = 300,000); AID 540256; active means well fitted inhibition curve with a large enough effect; inconclusive means small, poorly fitted or top-dose-only effect, or effect the other way; inactive means flat fitted curve, though single readings scatter; tested in HEK293 cells; also: % is scaled to controls: 0 for no effect and ±100 for the full control effect; nearly all actives have a fitted effect of over 50% in size; luciferase read-out
Starred values were filed as active, the others as inactive; ? = inconclusive; nt = not tested or not shown; & = joins results of further samples; [ ] = remark or other dose. Unless noted, calls follow the shape of the dose curve; as a rule, active = well fitted curve in the direction sought with a large enough effect; inconclusive = small, poorly fitted or top-dose-only effect, or another doubt; inactive = no such curve, though single readings can be large; an effect the other way counts as inactive or inconclusive. Potency is read from the fitted curve at half-maximal effect.

SMILES | RE007 growth inh | Cruzain noTriton | Cruzain Triton | SARS PLP yeast | StopGo reporter | MARV entry inh | NS1 inh | Lassa entry inh
CCOc1ccc(C(C)NC(=O)c2cccc(F)c2)cc1 (stereo not given) | 25% | -10% | 0.2% | 15% | 0% | -20% | -11% | -5%
O=C(NCCc1ccccc1)C1CCN(S(=O)(=O)N2CCCC2)CC1 | -18% | -6% | 0.8% | 4% | nt | 12% | 7% | 5%
O=C(O)/C(=C\c1ccc(C(F)(F)F)cc1)c1ccc(S(=O)(=O)N2CCCC2)s1 | -13% | nt | nt | 2% | -27% | ? | nt | 8%
O=C(NCCS(=O)(=O)N1CCN(c2ccccc2)CC1)C1CCCC1 | -9% | nt | nt | 0% | -4% | -2%[46.1 µM] | nt | 5%
CC(C)CCN1CC(C(=O)N2CCN(c3ccc(F)cc3)CC2)CC1=O (stereo not given) | 8% | 5% | 5.4% | 4% | -9% | 18% | -7% | 8%
CCC(=O)N1CCc2cc(Br)cc(S(=O)(=O)CCC(=O)N(CC)CC)c21 | -2% | nt | nt | 2% | -3% | 17%[46.1 µM] | nt | 26%[46.1 µM]
CCOc1cccc(C(=O)NNC(=O)CCC(=O)O)c1 | 3% | -4% | -2.2% | 4% | -17% | -15% | 0% | 4%
N/C(=N\OC(=O)c1cccc(Cl)c1)c1cccnc1 | -25% | -12% | 0.4% | -22% | 44%[activator] | ? | 5% | ?
COc1ccc(OC)c(CNCCNC(=O)c2ccco2)c1 | nt | 0% | 12% | -1% | nt | nt | -1% | nt
CCC(=NCCO)c1c(O)n(-c2ccccc2)c(=O)[nH]c1=O | 7% | -3% | 4.1% | 4% | -17% | 6% | 4% | 11%
O=C(O)c1ccccc1SCC(=O)N1CCOCC1 | 2% | nt | nt | 1% | -18% | 1%[46.1 µM] | 3% | 21%[46.1 µM]
COc1ccc(C(=O)Nc2ccccc2N2CCN(C(=O)c3ccccc3)CC2)cc1Br | -2% | nt | nt | -9% | -16% | ? | -17% | ?
CCCSc1nc(O)c(C2OC(=O)c3c2ccc(OC)c3OC)c(=O)n1C (stereo not given) | 2% | -14% | 1.2% | 3% | -15% | 1% | ? | 19%
COc1ccc(C(CNC(=O)c2cc3ccccc3cc2OC)N2CCCC2)cc1 (stereo not given) | -17% | -7% | -0.2% | -3% | 10% | ? | 6% | ?
COc1ccc2c(c1OC)C(=O)N1N=C(c3ccc(-c4ccccc4)cc3)CC21 (stereo not given) | -15% | nt | nt | -2% | ? | -7% | nt | -15%

The list goes on; the last 3 above are carried over.
SMILES | RE007 growth inh | Cruzain noTriton | Cruzain Triton | SARS PLP yeast | StopGo reporter | MARV entry inh | NS1 inh | Lassa entry inh
CCCSc1nc(O)c(C2OC(=O)c3c2ccc(OC)c3OC)c(=O)n1C (stereo not given) | 2% | -14% | 1.2% | 3% | -15% | 1% | ? | 19%
COc1ccc(C(CNC(=O)c2cc3ccccc3cc2OC)N2CCCC2)cc1 (stereo not given) | -17% | -7% | -0.2% | -3% | 10% | ? | 6% | ?
COc1ccc2c(c1OC)C(=O)N1N=C(c3ccc(-c4ccccc4)cc3)CC21 (stereo not given) | -15% | nt | nt | -2% | ? | -7% | nt | -15%
CCCCCn1c(=O)c(-c2nc3ccccc3c(=O)[nH]2)c(O)c2ccccc21 | nt | -6% | 3.8% | -2% | nt | nt | 3% | nt
COc1cccc(OC)c1OCCOc1ccc(C(=O)c2ccccc2)cc1 | -6% | -3% | -7.5% | 5% | 32µM* | ? | -14% | ?
O=C(C1COc2ccccc2O1)N1CCN(S(=O)(=O)c2ccccc2)CC1 (stereo not given) | -13% | nt | nt | 3% | ? | 3% | -7% | ?
CC(C)NC(=O)c1ccc2c(c1)S(=O)(=O)c1ccccc1C2=O | 0% | 8% | 0.7% | 8% | -3% | -13% | -12% | -9%
COc1ccc(N2CCN(C(=O)C3CCN(S(=O)(=O)N4CCOCC4)CC3)CC2)cc1 | -1% | 2% | 6.2% | -1% | ? | -16%&-16% | 0% | 1%
CC(C)NS(=O)(=O)c1ccc(Br)c(C(=O)OC(C)C(=O)NC2CCCCC2C)c1 (stereo not given) | 3% | nt | nt | 1% | -14% | ? | nt | ?
O=C(O)CC(NC(=O)C(c1ccccc1)c1ccccc1)c1ccco1 (stereo not given) | 6% | 7% | 8.1% | 6% | -15% | -1%[46.1 µM] | 1% | -12%
CC(=O)Oc1ccc2c(c1)C(=O)c1ccccc1C2=O | 14% | nt | nt | -11% | 32%[activator] | nt | -70% | nt
O=C(NCc1ccccc1)C(c1ccc(F)cc1)N(Cc1ccc2c(c1)OCO2)C(=O)Cn1nnc(-c2cccs2)n1 (stereo not given) | 27% | 13µM* | -1.5% | 12% | -12% | ? | 4% | -32%
Oc1c(C(c2cccs2)N2CCC3(CC2)OCCO3)sc2ncnn12 (stereo not given) | 7% | 5% | -3.2% | 6% | 0% | nt | -36% | nt
CCn1c(CC(=O)Nc2ccc(Cl)c(Cl)c2)nnc1SCc1ccc(C)cc1 | 25% | ? | 12% | 6% | -17% | 4% | -7% | 1%
O=C(NC1CCN(C(=S)NCCc2ccccc2)CC1)C1CC1 | 14% | nt | nt | 8% | 4% | 10% | 0% | 1%
CCc1cccc(NC(=O)CN(C)S(=O)(=O)c2cnc[nH]2)c1 | 9% | -7% | 0.1% | -5% | -1% | 7% | 1% | 8%
CC(Oc1ccccc1Cl)C(=O)Nc1ccccc1C(=O)N1CCOCC1 (stereo not given) | 4% | nt | nt | -1% | -2% | 11% | 2% | -3%
Cc1nn(-c2ccccc2)c(N)c1N=Nc1ccc2ccccc2c1 | -1% | ? | -4.3% | -77% | 41%[activator] | ? | -12% | ?
Cc1cc(N2CCCCC2)nc2ccc(NC(=O)c3ccc(Br)o3)cc12 | -18% | -5% | -16% | -3% | 40µM* | ? | -76% | ?
CC(C)NCC(=O)NC12CC3CC(CC(C3)C1)C2 | 19% | 3% | 4.8% | 8% | -20% | ? | 6% | -1%
Cc1nn(CCC#N)c2nc(C(F)(F)F)[nH]c(=O)c12 | -12% | -4% | 2.2% | 1% | -7% | 15% | 5% | 10%
O=C(C1=NOC(CNc2ncc(C(F)(F)F)cc2Cl)C1)N1CCOCC1 (stereo not given) | 6% | nt | nt | 0% | -24% | ? | 3% | -7%[46.1 µM]
Cc1nnc(-c2ccc(Oc3ccc(Br)cc3)c([N+](=O)[O-])c2)o1 | 7% | 4% | -3.1% | -16% | -9% | ? | 3% | -3%
C=CCC(CC=C)(NC(=O)c1ccccc1C(=O)O)c1ccccc1 | -8% | -4% | -0.5% | -1% | 6% | -18% | 5% | 1%
COc1cccc(-c2csc(/C(C#N)=C/Nc3cc4oc5ccccc5c4cc3OC)n2)c1 | 1% | nt | nt | 3% | -1% | ? | nt | 13%
COc1cccc(CN2C(=O)C3CCCN3c3ccc(S(=O)(=O)N4CCOCC4)cc32)c1 (stereo not given) | nt | -25% | -0.7% | 1% | nt | 3% | 8% | nt
CCOC(=O)C1CCN(S(=O)(=O)c2cccc(-c3csc(C)n3)c2)CC1 | 15% | 9% | -3.0% | -6% | -13% | -15% | -54% | -19%
Cc1ccc(S(=O)(=O)Nc2ccccc2C(=O)N2CCCCC2)cc1 | -13% | nt | nt | 4% | 28% | nt | 4% | nt
Cc1[nH]c(=O)c(C#N)cc1-c1ccccc1 | 1% | 11% | -1.3% | 2% | -5% | 24% | 3% | 24%
Cc1cccc(OCCCn2c(CO)nc3ccccc32)c1 | 0% | nt | nt | 1% | -9% | ? | 0% | ?
COc1ccc(Oc2nc(-c3ccccn3)nc3ccccc23)cc1 | -16% | nt | nt | -3% | 3% | ? | -44% | ?
COc1ccc([N+](=O)[O-])cc1NC(=O)c1ccc(-n2nc(C)cc2C)cc1 | 1% | nt | nt | 0% | -1% | -29%[14.2 µM] | nt | 11%
CCOC(=O)C1CCN(C(=O)Cc2c(F)cccc2Cl)CC1 | -2% | 8% | 0.6% | -1% | nt | 2% | 1% | 2%
O=C(O)Cn1c(CCS(=O)(=O)c2ccc(Br)cc2)nc2ccccc21 | 8% | nt | nt | 0% | -1% | 5%[46.1 µM] | nt | 1%
Cc1ccc(-c2nn3c(C)nnc3s2)cc1NC(=O)COc1ccc(Cl)cc1 | -1% | 1% | -1.3% | -2% | ? | nt | -95% | nt
CC(C)OCC1CC(CC(=O)Nc2ccc([N+](=O)[O-])cc2)C(=O)O1 (stereo not given) | -3% | nt | nt | 1% | -7% | 2%[14.2 µM] | 0% | 8%
CC(C)=C1SC(N2CCN(c3ccc(C)cc3)CC2)=NC1=O | -5% | -9% | -3.0% | 30% | 0% | 3% | 6% | -5%
COC(=O)CCCC(=O)Nc1ccc(Br)cc1 | -6% | 2% | -1.1% | -26% | 11% | -1% | -4% | 22%
COc1ccc(CC(=O)N(Cc2ccccc2)c2ccc(C)cc2)cc1OC | -20% | nt | nt | 0% | ? | ? | -4% | ?
CCN(c1ccccc1)S(=O)(=O)c1nnc(NC(=O)c2ccccc2)s1 | nt | 2% | -0.8% | nt | 31%[activator] | nt | nt | ?
Cc1ccc(C)c(N2CCN(C(=O)c3ccc4[nH]c(C)c(C)c4c3)CC2)c1 | nt | -26% | -9.3% | nt | -19% | nt | nt | ?
CNc1ccc(-c2nc(-c3ccccn3)no2)cc1[N+](=O)[O-] | nt | 21% | -3.0% | nt | 0% | -19%[46.1 µM] | nt | -2%[46.1 µM]
O=C(CSc1nccn1Cc1ccc2c(c1)OCO2)Nc1ccccc1F | nt | -7% | -3.3% | nt | 4% | nt | nt | 10%[46.1 µM]
Cc1cc(C(F)F)n2ncc(C(=O)NCc3ccc(F)cc3)c2n1 | 3% | nt | nt | -6% | -3% | 4% | -11% | ?
Cc1cc(=O)oc2cc(OCC(=O)Nc3ccc(O)c(C(=O)O)c3)ccc12 | nt | 9% | -6.1% | nt | -10% | -12%[46.1 µM] | nt | 6%[46.1 µM]

Compounds were not picked by outcome (roughly 4.8% active in at least one column).
